HPGD inh = qHTS Assay for Inhibitors of HPGD (15-Hydroxyprostaglandin Dehydrogenase) | 15-hydroxyprostaglandin dehydrogenase [NAD(+)] (Homo sapiens), P15428 | purified HPGD, NADH fluorescence kinetic, PGE2 substrate | Potency, µM, inactives show at the highest dose activity change, negative = inhibition, usual class: inhibitors | 150,000 tested, 4.3% active | AID 894, 2007; active = well fitted inhibition curve with a large enough effect (not every such curve was filed as active); inconclusive = small, poorly fitted or top-dose-only effect, or another doubt; inactive = no such curve, though single readings can be large or run the other way;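 also: top concentration of the series not given in the record; plate controls included wells without enzyme; inactives centre near -10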
Target sequence (P15428 whole entry, looked up): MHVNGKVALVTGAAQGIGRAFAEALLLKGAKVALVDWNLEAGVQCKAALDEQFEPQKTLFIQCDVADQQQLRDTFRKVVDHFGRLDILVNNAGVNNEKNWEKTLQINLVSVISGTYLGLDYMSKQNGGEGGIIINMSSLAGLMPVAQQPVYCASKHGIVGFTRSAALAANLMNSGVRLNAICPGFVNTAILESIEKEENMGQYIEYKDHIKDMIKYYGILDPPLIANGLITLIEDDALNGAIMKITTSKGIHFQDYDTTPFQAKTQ
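NADH formation kinetics: reaction with 30 uM PGE2 and 1 mM NAD+ (final), 20 nM enzyme, Tris-HCl pH 8 with Tween 20, after 15 min compound preincubation at room temperature. Fluorescence change, last versus first of five reads.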
* hit, by the source's call; u = inconclusive. % is scaled to controls: 0 for no effect and ±100 for the full control effect; potency is read from the fitted curve at half-maximal effect.

SMILES	HPGD inh
O=C(CSC1=Nc2ccccc2C2=NC(c3ccccc3)C(=O)N12)NC1CCCCC1 (configuration not stated)	u
Cc1cnc(CNc2ncnc3ccc(-c4cccc(C#N)c4)cc23)cn1	-7%
OCCCc1nc2n(n1)C(c1cccs1)C=C(c1ccc(Br)cc1)N2 (configuration not stated)	u
O=S(Cc1ccc(Cl)cc1)CC(O)COCc1ccc(Cl)cc1 (configuration not stated)	-11%
CN1C(=O)/C(=N\OC(=O)c2cccc3ccccc23)c2ccccc21	u
O=C(COc1ncnc2ccc(Br)cc12)NCc1ccc2c(c1)OCO2	-4%
COc1ccc(-n2c(Cc3cccn3C)nnc2SCC(=O)Nc2ccc3c(c2)OCCO3)cc1	-19%
CCOC(=O)c1c(NC(=O)Cn2cnc3scc(-c4ccc(C)cc4)c3c2=O)sc(C)c1C	-29%
Cn1c(=O)c2c(nc(NCCO)n2CCc2ccccc2)n(C)c1=O	0%
CCCN1CCN(CCCNC(=O)Cn2nc(-c3ccc(C)cc3)ccc2=O)CC1	-25%
COc1cccc2c1OCC(C(=O)NCc1ccc(Cl)cc1Cl)=C2	-24%
Cc1oc(-c2ccccc2F)nc1CN1CCC(C(=O)NCc2cccnc2)CC1	-8%
Cc1ccc(C)c(NC(=O)Cn2nc(-c3ccccc3)nc2-c2ccccc2)c1	-12%
Cc1cc(NS(=O)(=O)c2ccccc2)cc(Cl)c1O	-26%
CCOc1ccc(-c2nn(-c3ccccc3)cc2/C=C2\SC(=S)N(C3CCS(=O)(=O)C3)C2=O)cc1 (configuration not stated)	-4%
COc1cc(OC)cc(C(=O)NC(=S)N2CCN(c3ccc(C(F)(F)F)cc3[N+](=O)[O-])CC2)c1	-25%
CSc1nc(-c2ccccc2)nc(SC)c1C(C)=O	-22%
Cc1noc(C)c1C(c1ccccc1)c1ccccc1	-13%
Cc1nc2ncnn2c(N2CCN(C(=O)c3cccc(F)c3)CC2)c1C	-5%
COc1ccc(N(C(=O)c2ccc(S(=O)(=O)N3CCOCC3)cc2)C2C=CS(=O)(=O)C2)cc1 (configuration not stated)	-6%
COc1ccc(Nc2nc(C)cc(C)c2C(N)=O)cc1	-3%
CS(=O)(=O)Nc1ccc(C(=O)NCc2ccc3c(c2)OCO3)cc1	-16%
CC(C)(C)NC(=O)CN(C(=O)CS(=O)CC(=O)Nc1ccc(F)cc1)c1ccc(F)c(Cl)c1 (configuration not stated)	-11%
Cc1ccc(C)c(NC(=O)c2nnn(Cc3ccccc3C)c2N)c1	-13%
Cc1ccc(C(=O)c2cn[nH]c2-c2cc(Cl)ccc2O)cc1	-28%
O=C(Nc1ccnc(-c2cccnc2)n1)c1ccc(Cl)c(Cl)c1	-3%
Cc1cc(C)n(C(=O)c2cc3c(s2)CCCC3)n1	-18%
COC(=O)Cc1cc(=O)[nH]c(/N=C(\N)Nc2ccccc2C)n1	1%
Cc1ccc(SCCNC(=O)c2cccc([N+](=O)[O-])c2C)cc1	25µM*
Cc1cccc(NC(=O)c2ccccc2OCC(=O)N2CCOCC2)c1C	3%
COc1cccc(-n2c(CN3CCN(c4ccccc4)CC3)nc3ccc([N+](=O)[O-])cc3c2=O)c1	-13%
CC(C)c1cc(N2CCN(C(=O)c3ccco3)CC2)n2c(nc3ccccc32)c1C#N	u
Cc1ccc(C(=O)Nc2ccncc2)o1	0%
O=C(Nc1ccccc1C(F)(F)F)N1CCN(c2ccc3nncn3n2)CC1	-7%
COc1ccc(/C=C/C(=O)c2ccc(O)cc2O)cc1	32µM*
COc1ccc(N2CCN(C(=O)CCCN3C(=O)c4cccc5cccc(c45)C3=O)CC2)cc1	-14%
CC(C)(C)C(=O)c1no[n+]([O-])c1/C(=N/O)C(C)(C)C	-14%
O=C(c1ccccc1)N1CCC(c2nc3c(nnn3Cc3ccco3)c(=O)[nH]2)CC1	14µM*
COC(=O)c1sccc1NS(=O)(=O)c1ccc(OC)cc1	20µM*
COc1ccccc1NC(=O)N(Cc1ccccc1)C1=NCC(C)S1 (configuration not stated)	-7%
N#Cc1nc(-c2cccc3ccccc23)oc1NCCN1CCCCC1	u
CNC(=O)Cn1nc(C)c2ccccc2c1=O	-3%
CCOC(=O)C(CC)n1cnc2c(oc3ccccc32)c1=O (configuration not stated)	-8%
Cc1cnn(C(=S)NCC2CCCO2)c1 (configuration not stated)	-11%
O=C(N1CCCC1)C12CCC3CC(CC(C3)C1)C2	-3%
CCOc1ccc2nc(NC(=O)c3cccc(-c4cc5ccccc5oc4=O)c3)sc2c1	u
O=C(CN1CCCN(S(=O)(=O)c2ccc(Br)cc2)CC1)Nc1ccc2c(c1)OCO2	-8%
CN(C)c1ccc(C(=O)/C=C/c2ccco2)cc1	32µM*
O=C(N1CCCCC1)N1CCCN(C(=O)N2CCCCC2)CC1	-23%
CC(=O)Nc1ccc(S(=O)(=O)Nc2nccc(/C=C/c3ccc(Cl)cc3)n2)cc1	u
Following part:
SMILES	HPGD inh
Cc1ccc(C2=NN(CC(=O)NCc3cccnc3)C(=O)CC2)cc1	-14%
Cn1c(=O)c2c(nc(NCCOc3ccc(C(C)(C)C)cc3)n2C)n(C)c1=O	-5%
COc1ccc(Cl)cc1C(=O)NNC(=O)c1cccc(S(=O)(=O)N(C)C)c1	0%
CCOC(=O)C1CN(S(=O)(=O)c2cccc(C(F)(F)F)c2)c2cc(CC(=O)OC)ccc2O1 (configuration not stated)	-25%
Cc1[nH]nc2c1C(c1cccc(O)c1)C1=C(CC(C)(C)CC1=O)N2 (configuration not stated)	u
COC(=O)[C@@]1(Cc2ccccc2)[C@H]2c3cc(C(=O)N(C)C)n(CCSCCO)c3C[C@H]2CN1C(=O)c1ccccc1	-3%
O=C(CCC(=O)Nc1nnc(C2CCCCC2)s1)NCC1CCCO1 (configuration not stated)	-11%
Cc1ccc(C(=O)C(OC(=O)c2cnccn2)c2ccccc2)cc1C (configuration not stated)	-19%
COc1ccc(-n2cc(C(=O)c3cc4ccccc4oc3=O)c(C(C)=O)n2)cc1	u
c1ccc(-c2csc(NNC3=NCCCCC3)n2)cc1	u

3 entries from above, with values ahead of the structure.
| HPGD inh | mol |
| --- | --- |
| -3% | O=C(Nc1ccnc(-c2cccnc2)n1)c1ccc(Cl)c(Cl)c1 |
| -18% | Cc1cc(C)n(C(=O)c2cc3c(s2)CCCC3)n1 |
| 1% | COC(=O)Cc1cc(=O)[nH]c(/N=C(\N)Nc2ccccc2C)n1 |

Remaining list, next part.
SMILES	HPGD inh
O=C(CSc1ccc2c(c1)OCCO2)Nc1ccc2c(c1)OCO2	-13%
COc1ccc(NC(=O)Cn2nc3n(c2=S)CCC3)cc1	-17%
O=C(NCCc1cccc(Cl)c1)c1cccnc1	-19%
CCOC(=O)c1[nH]c(C)c(C(=O)NC2CCCCC2)c1C	-21%
CCOc1nc(NCCO)nc(NCCC2=CCCCC2)n1	-8%
CC(/C=C1\SC(=O)N(CC(=O)Nc2ccc(O)cc2)C1=O)=C\c1ccccc1	-18%
CCc1ccccc1NC(=O)C(CC)Sc1nc2cc3c(cc2c(=O)n1Cc1ccco1)OCO3 (configuration not stated)	5%
CCC12CCCN3CCC4(C(=C(C(=O)OC)C1)Nc1ccccc14)C32 (configuration not stated)	-22%
COC(=O)C(C)Sc1snnc1-c1ccccc1 (configuration not stated)	-28%
Cn1cnc2cc(NC(=O)c3ccc(Cl)cc3)ccc21	-7%
CC(C)Cc1cc(C(=O)Nc2cc(C(F)(F)F)ccc2Cl)no1	-26%
O=C(Cn1nc(-c2ccccc2)c2ccccc2c1=O)NCCN1CCOCC1	-7%
O=C1NCC(c2ccccc2)C1C(=O)N/N=C\c1ccc(-c2cccc(Cl)c2Cl)o1 (configuration not stated)	u
O=S(=O)(c1cccc2nsnc12)N1CCN(c2ncccn2)CC1	-7%
Oc1ccccc1CNc1ccc(Br)cn1	-25%
CC(C)(C)NC(=O)c1ccc(COc2ccccc2Br)o1	-22%
O=C(Cc1cn2ccsc2n1)Nc1ccccc1Oc1ccccc1	-16%
CN(Cc1cc(Br)cc(Br)c1O)Cc1c(O)ccc2ccccc12	-10%
O=C(OC1CCOC1=O)c1cccc(S(=O)(=O)Nc2ccc(F)cc2)c1 (configuration not stated)	-1%
CC1(C)NC(=O)N(CC(=O)OCC(=O)Nc2cc(S(=O)(=O)N3CCCCCC3)ccc2Cl)C1=O	-8%

Overlap with the part before: seven entries; new compounds follow.
SMILES	HPGD inh
O=S(=O)(c1cccc2nsnc12)N1CCN(c2ncccn2)CC1	-7%
Oc1ccccc1CNc1ccc(Br)cn1	-25%
CC(C)(C)NC(=O)c1ccc(COc2ccccc2Br)o1	-22%
O=C(Cc1cn2ccsc2n1)Nc1ccccc1Oc1ccccc1	-16%
CN(Cc1cc(Br)cc(Br)c1O)Cc1c(O)ccc2ccccc12	-10%
O=C(OC1CCOC1=O)c1cccc(S(=O)(=O)Nc2ccc(F)cc2)c1 (configuration not stated)	-1%
CC1(C)NC(=O)N(CC(=O)OCC(=O)Nc2cc(S(=O)(=O)N3CCCCCC3)ccc2Cl)C1=O	-8%
CCCCOC(=O)c1ccc(-c2ccc(/C=N/NC(=S)NCC)o2)cc1	-29%
COc1ccccc1N(C)S(=O)(=O)c1ccc(C(=O)OCC(=O)c2c[nH]c3ccccc23)cc1	-11%
COc1ccc(Oc2cc(C)c3ccccc3n2)cc1	-16%
O=C1c2ccccc2C(=O)N1CCCc1nc2ccccc2c(=O)n1Cc1ccco1	-6%
CCN(CC(=O)NCc1ccc(F)cc1)C(=O)COc1ccc(C)c(C)c1	0%
O=C(CCNC(=O)Cn1ccc2ccccc2c1=O)NCCN1CCN(c2cccc(Cl)c2)CC1	-4%
NC(=O)NC1NC(=O)NC1=O (configuration not stated)	-3%
CCOc1cc2c(C#N)c(N3CCCCC3)nc(N)c2c(N)n1	u
CCn1c(SCC(=O)NCc2ccccc2)nnc1-c1ccccc1O	2%
CC(C)=C1CCC(C)CC1=O (configuration not stated)	-9%
CCCCCCC1CCC(c2nc(-c3ccncc3)no2)CC1 (configuration not stated)	-4%
CC(=O)N1[C@H](C)C=C[C@]1(Cc1ccccc1)C(=O)NCc1ccc(C)o1	14µM*
Cc1ccnc(NS(=O)(=O)c2ccc(CC(C)C)cc2)c1	-13%
O=C(NCCc1ccc(Cl)cc1)C1CCC(=O)N1C1CCCC1 (configuration not stated)	-7%
Cc1ccc(CSc2nnc(-c3cccnc3)o2)cc1	-9%
Cc1ccc(-c2nnc(SCc3ccc(C#N)cc3)n2Cc2ccco2)cc1	-1%
COc1c(/C=N/NC(=O)c2ccccc2O)c(CCN(C)C(C)=O)cc2c1OCO2	-25%
CCCNC(=O)c1cc(-c2ccc(OC)cc2)on1	-10%
NS(=O)(=O)c1ccc(CCNC(=O)C2CCCN(S(=O)(=O)c3cccnc3)C2)cc1 (configuration not stated)	1%
NCC[C@H](O)C(=O)N[C@@H]1C[C@H](N)[C@@H](O[C@H]2O[C@H](CN)[C@@H](O)[C@H](O)[C@H]2O)[C@H](O)[C@H]1O[C@H]1O[C@H](CO)[C@@H](O)[C@H](N)[C@H]1O	-12%

The closing 3 entries of the section above come first, to join the parts.
SMILES	HPGD inh
CCCNC(=O)c1cc(-c2ccc(OC)cc2)on1	-10%
NS(=O)(=O)c1ccc(CCNC(=O)C2CCCN(S(=O)(=O)c3cccnc3)C2)cc1 (configuration not stated)	1%
NCC[C@H](O)C(=O)N[C@@H]1C[C@H](N)[C@@H](O[C@H]2O[C@H](CN)[C@@H](O)[C@H](O)[C@H]2O)[C@H](O)[C@H]1O[C@H]1O[C@H](CO)[C@@H](O)[C@H](N)[C@H]1O	-12%
O=C(c1sc2cccc(F)c2c1Cl)N1CCN(c2ncccn2)CC1	-12%
Cc1ccc(C)n1-c1nc(=S)[nH][nH]1	16µM*
O=C1CS/C(=C\[N+](=O)[O-])N1c1ccc(OC(F)(F)F)cc1	-9%
Cc1cc(NC(=O)CCCC(=O)N(c2ccccc2)C(C(=O)NC2CCCCC2)c2cccs2)no1 (configuration not stated)	-7%
O=C(NC1CC1)C1CCCN(C(=O)Nc2ccc(F)cc2)C1 (configuration not stated)	-13%
CC(/C=C1\SC(=S)N(CCCC(=O)Nc2ccc(C(=O)O)c(O)c2)C1=O)=C\c1ccccc1	u
Cc1cc(=O)oc(C)c1C(=O)NCc1cccnc1	-17%
O=C(O)/C(=C\c1ccco1)NC(=O)c1ccccc1	-16%
Cc1cc(C)c(C)c(S(=O)(=O)ON2C(=O)c3ccccc3C2=O)c1C	u
O=C1OCCN1C(=O)[C@H]1[C@H](c2ccc(F)cc2)C(c2ccccc2)=NN1c1ccccc1	u
O=C(CN(Cc1ccco1)C(=O)c1cccc(Cl)c1)Nc1c(Cl)cc(Cl)cc1Cl	-10%
Cc1ccc(CNC(=O)CCc2nc3ccccc3c(=O)[nH]2)cc1	-4%
O=C(O)CCSc1nnc(-c2cccnc2)n1-c1ccccc1	-11%
Cc1ccc(S(=O)(=O)N2CCOCC2)cc1NC(=O)COC(=O)c1ccc(OCc2c(C)noc2C)cc1	-23%
COc1cc(S(=O)(=O)NCC2COCCO2)ccc1-n1cnnn1 (configuration not stated)	-22%
COc1ccc(N2CC(O)=C(c3nc(C)cs3)C2=N)cc1	-12%
CC(C)(C)SCCNC(=O)CN(c1ccc(F)cc1)S(C)(=O)=O	-14%
CC1CCN(C(=O)C2CCN(CCCc3ccccc3)CC2)CC1	-6%
CC1CCN(c2ccc(/C=C(\C#N)c3nn(-c4ccccc4)c(N)c3C#N)cc2[N+](=O)[O-])CC1	-9%
Cc1cc(=O)oc(C)c1C(=O)NCC1COc2ccccc2O1 (configuration not stated)	-11%
Cc1ccc(C(=O)n2cnnc2N)cc1C	-13%
COc1cccc(Cn2nnc(C(=O)Nc3cc(Cl)ccc3OC)c2N)c1	u
CCOC(=O)c1cnc(SCC(=O)Nc2ccc(N3CCOCC3)cc2)nc1N	-4%
CCOC(=O)c1[nH]c(C)c(C(=O)NCCN2CCOCC2)c1C	-1%
CC(OC(=O)c1cc(-c2cccnc2)nc2ccccc12)C(=O)Nc1ccc2ccccc2c1 (configuration not stated)	-6%
Cc1sc2nc(C)n(/N=C/c3ccccc3)c(=O)c2c1C	4%

This is a subset; rates above refer to the full screens.
